# Mtb hypoxia inh – Mtb hypoxia fluorescent reporter inhibition | fluorescence inhibition, % (concentration not given with the values) | 300,000 compounds, 0.1% hits | M. tuberculosis hypoxia-regulated fluorescent reporter, fluorescence;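 active means 35 to 45% if threefold the growth effect, above 45% if 1.5-fold the growth effect; inactive means the rest, general growth blockers included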;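 further: wells of about 50 µL received 100 nL stock; 0% = vehicle wells and 100% = reference inhibitor wells; whole bacteria with a GFP reporter of the hypoxia response; strong numbers were not always called active; many hits fall short of the cut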
# BJeLR lethal – BJeLR cell viability loss; BJeLR (HRASV12) viability, CellTiter-Glo ATP luminescence, 48 h; reference of the scale not given here; inhibition, % (test concentration not listed); 300,000 compounds, 0.17% hits; AID 1554;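 active means replicate mean above 50%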;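 further: 50 nL library stock added to about 25 µL; numbers are from one replicate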
# PrP 5UTR inh – suppresses PrP 5' UTR mRNA reporter expression; 340,000 compounds, 0.35% hits; inhibition, % (test concentration not listed); cell-based PrP 5' UTR mRNA reporter, plate reader;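 active means every replicate at 50% or more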;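 further: 0 = median of the neutral control wells; tested in H4 reporter cells; numbers are from one replicate; inactives centre near -14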
# ugtP null kill – kills S. aureus RN4220 lacking UgtP; S. aureus RN4220 ugtP deletion, OD600 growth, 16 h; some inactives read as strong as hits; growth inhibition, % (no concentration beside the values); 330,000 compounds, 0.54% hits; AID 1259309;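 active means z-score under -3 and OD600 up to 0.15 on both plates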;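 further: plate controls were untreated wells for no effect and antibiotic for full effect; wells of about 80 µL received 100 nL stock; the first replicate is given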
# RN4220 kill – kills Staphylococcus aureus RN4220 | S. aureus RN4220 growth, OD600, 16 h | 330,000 compounds, 0.33% hits | AID 1259311 | inhibition, % (concentration not given with the values);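 active means z-score of -3 or lower and OD600 up to 0.18 on both plates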;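 further: plate controls were untreated cells for no effect and reference antibiotic for full effect; stock transfer was 100 nL into about 80 µL; one replicate is shown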
# Autofluor counter – counter-screen for toxin protease inhibitors: compound fluorescence. compound autofluorescence counterscreen, microsphere flow cytometry; hits give high values. fluorescence intensity (concentration not given with the values). 360,000 compounds, 3.1% hits. AID 624483;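 active means at least 3 SD above the mean of all compounds, about 16000 in these data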;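 further: 100 nL of 1 mM stock went into each well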
# Mtb hypoxia inh growth – recorded beside Mtb hypoxia inh, whose call it bears; growth inhibition, %; measured here: M. tuberculosis growth (absorbance);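 0% = vehicle and 100% = reference antibiotic; read after six days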
# An asterisk follows results filed as active; nt = not tested or not shown.
SMILES,Mtb hypoxia inh,Mtb hypoxia inh growth,BJeLR lethal,PrP 5UTR inh,ugtP null kill,RN4220 kill,Autofluor counter
COc1ccccc1OCCCCn1ncc2ccc(OC)c(OC)c2c1=O,8,7,-3,-16,2,1.6,4165
CC(C(=O)NCCCc1ccccc1)c1ccc([N+](=O)[O-])cc1 (stereo not drawn),12,3,1,-2,8,1.6,2486
Nn1c(-c2cccc([N+](=O)[O-])c2)nc2ccccc2c1=O,6,3,7,9,0,-1.4,3087
COc1ccccc1C(=O)NCc1ccccn1,13,16,9,-14,10,0.2,4274
O=C(O)CC1NC(=O)N(c2ccccc2)C1=O (stereo not drawn),5,9,-8,nt,2,0.2,nt
COc1cccc(OCC(=O)NNC(=O)c2ccc(-c3ccccc3)cc2)c1,7,9,4,-12,1,4.9,3870
COc1cc(C=NNc2nc(=O)[nH]nc2C)cc(OC)c1O,5,-4,nt,nt,6,4.5,nt
COc1ccc(-c2nnc(-c3ccccc3O)o2)cc1,2,-3,-9,-52,0,5.2,3796
Cn1c(=O)oc2cc(S(=O)(=O)N3CCCC(C(=O)Nc4ccc5c(c4)OCCO5)C3)ccc21 (stereo not drawn),3,8,nt,2,10,3.3,6020
Cc1ccccc1C=NNC(=O)Cn1cnc([N+](=O)[O-])n1,4,9,nt,nt,6,-4.1,nt
COc1cc(C=NNC(=O)c2cccc([N+](=O)[O-])c2)ccc1O,4,-3,nt,nt,8,-1.4,nt
C=Cc1ccc(CN2CCCN(Cc3ccc(Cl)cc3)S2(=O)=O)cc1,14,10,-6,-23,-4,-2.6,4051

# Next part, starting with the last 4 of the part before.
SMILES,Mtb hypoxia inh,Mtb hypoxia inh growth,BJeLR lethal,PrP 5UTR inh,ugtP null kill,RN4220 kill,Autofluor counter
Cn1c(=O)oc2cc(S(=O)(=O)N3CCCC(C(=O)Nc4ccc5c(c4)OCCO5)C3)ccc21 (stereo not drawn),3,8,nt,2,10,3.3,6020
Cc1ccccc1C=NNC(=O)Cn1cnc([N+](=O)[O-])n1,4,9,nt,nt,6,-4.1,nt
COc1cc(C=NNC(=O)c2cccc([N+](=O)[O-])c2)ccc1O,4,-3,nt,nt,8,-1.4,nt
C=Cc1ccc(CN2CCCN(Cc3ccc(Cl)cc3)S2(=O)=O)cc1,14,10,-6,-23,-4,-2.6,4051
CC(OC(=O)c1ccco1)C(=O)Nc1ncc(Cl)cc1Cl (stereo not drawn),14,5,nt,-30,0,3.8,3758
CC1CCN(S(=O)(=O)c2ccc3c(c2)N(CC(=O)N(C)Cc2ccco2)C(=O)CO3)CC1,-1,2,11,-10,0,-0.5,5331
Cn1cc(C(=O)N2CCCCCC2)c(=O)c2cc(S(=O)(=O)N3CCCCC3)ccc21,6,7,-7,-22,4,1.8,5194
Brc1ccc(Cn2c(-c3cncs3)nc3ccccc32)cc1,16,0,2,-17,9,-1.8,10760
COc1ccc(OCC2CCCN(Cc3nc(CC4CC4)no3)C2)cc1 (stereo not drawn),12,9,-7,-18,8,6.1,4463
CC1CC(C)CN(C(=O)c2cn(C)c3ccc(S(=O)(=O)N(C)C)cc3c2=O)C1 (stereo not drawn),nt,nt,-20,-11,-3,2.4,5716
Cc1cc2c(c(=O)o1)C(c1ccc([N+](=O)[O-])o1)C(C#N)=C(N)O2 (stereo not drawn),-29,4,-10,-11,13,1.2,5078
CC(C)(C)C(=O)NC1(C(F)(F)F)NC(=O)N(c2ccc(F)cc2)C1=O (stereo not drawn),11,1,-1,-20,3,1.6,4581
CSc1nnc(-c2ccc(C(F)(F)F)cn2)o1,4,10,-17,nt,11,4.9,5848
COc1ccc(C2/C(=C(/O)c3ccc4c(c3)CC(C)O4)C(=O)C(=O)N2CCN2CCOCC2)cc1 (stereo not drawn),nt,nt,2,4,nt,nt,2458
COc1ccc2cc(C(=O)NCc3ccco3)c(=Nc3ccc(C(=O)O)cc3)oc2c1,15,17,-7,-36,-3,11,4196
COc1ccc(N(CC(=O)Nc2ccc(OC)c(OC)c2)S(=O)(=O)c2ccccc2)cc1Cl,1,12,-1,-20,6,0.9,3411
CC(NC(=O)CCC1CCC(=O)N1)c1ccccc1 (stereo not drawn),-3,0,nt,nt,0,7.9,nt
COC(=O)c1ccc(C2/C(=C(/O)c3ccc(OC(C)C)cc3)C(=O)C(=O)N2c2cc(C)on2)cc1 (stereo not drawn),7,6,-2,-17,3,-0.9,3236
O=C(NCc1ccccn1)c1ccc(S(=O)(=O)Nc2ccccc2F)cc1,10,8,-3,-26,-7,0.8,5872
CSc1ncccc1C(=O)OCc1c(F)cccc1Cl,1,-4,-4,-10,29,-3.9,6034
CC(C)C(NC(=O)C1CC(=O)N(Cc2ccccc2)C1)c1nc2ccccc2[nH]1 (stereo not drawn),6,7,nt,-16,6,-5.2,3667
COc1ccc(-c2csc3ncnc(Sc4nnnn4C)c23)cc1,-1,6,nt,-7,1,-9.1,2863
COc1ccccc1C=NNC(=O)c1ccccc1NS(=O)(=O)c1ccc(C)cc1,-6,-12,nt,nt,3,4.4,nt
CN(C)c1ccc(-c2nc3cc(N)ccc3o2)cc1,7,17,7,41,-6,3.4,4817
COCCn1c(C)cc(C(=O)COC(=O)c2ccc[nH]c2=O)c1C,-1,-1,10,10,9,-1.8,2327
CC(C)c1ccc(NC(=S)NN2CCN(C)CC2)cc1,9,12,4,1,9,6.8,4425
COc1cccc(C(=O)Cn2c(=O)n(CCC(=O)NCC3CCCO3)c(=O)c3cc(OC)c(OC)cc32)c1 (stereo not drawn),-2,6,-2,-11,0,3.1,6202
NC(=S)Nc1ccc(F)cc1F,-9,6,-8,-6,2,2.8,3224
O=C(NCc1ccc2c(c1)OCO2)c1ccc(CN2CCOCC2)cc1,4,2,1,-13,7,2.5,16861*
Cc1cc(C)c2[nH]c(=O)c(C(c3nnnn3C(C)(C)C)N3CCN(C(=O)c4ccco4)CC3)cc2c1 (stereo not drawn),-4,-2,7,-14,-3,5.0,9636
O=C(COc1cnc2ccccc2n1)NCCC1=CCCCC1,7,5,1,-25,10,7.3,3214
CC1CCCCN1C(=O)CCS(=O)(=O)c1cc2c(cc1Cl)NC(=O)CO2 (stereo not drawn),8,5,-2,-24,0,-12,5690
COc1ccc(CC(=O)NCC(c2ccc(OC)cc2)N(C)C)cc1 (stereo not drawn),7,3,-15,-47,6,2.4,4315
CCOC(=O)c1cnn2c(C(F)(F)F)cc(-c3ccco3)nc12,nt,nt,-11,-5,-2,1.1,5098
O=C(Cn1c2c(c(=O)n3ncnc13)CCC2)NN=Cc1ccc(Cl)cc1,9,6,nt,nt,3,2.4,nt
O=C(NC(Cc1ccccc1)C(=O)N1CCN(c2ccccc2O)CC1)c1ccccc1 (stereo not drawn),-2,5,nt,-32,0,1.8,6658
Cc1cc(-c2ccc(C(=O)O)s2)cnc1N,9,8,-3,-14,2,0.7,2599
O=C(c1ccc(CS(=O)(=O)c2ccccc2)o1)N1CCN(c2ncccn2)CC1,4,4,1,-19,2,3.6,5207
Cc1c(CN(C)CCc2ccccc2)c(=O)n(-c2ccccc2)n1C,-1,4,-12,-23,1,6.5,4307
CCS(=O)(=O)c1ccc2oc(Nc3ccc(C(C)C)cc3)nc2c1,10,6,8,-15,-12,3.8,3016
C=CCc1ccc(OCCOCCNCCOC)c(OC)c1,5,6,-8,-4,-4,4.6,2962
Cc1ccccc1OCCNC(=S)Nc1ccccc1,15,11,-4,-3,-5,16,2301
O=C(Nc1ccc2c(c1)OCO2)C1CCCN1C(=O)Nc1cccc(F)c1 (stereo not drawn),5,2,4,-13,10,6.1,4820
CC(=O)Oc1cccc(C(=O)Nc2ccccc2NC(=O)c2cccc(OC(C)=O)c2)c1,7,-7,-18,-23,-4,0.0,2839
COCCCNC(=O)c1ccc2nc3ccccc3c(=O)n2c1,4,-2,0,nt,8,1.7,9459
O=S(=O)(CCc1ccncc1)Cc1ccc2c3c(cccc13)CC2,8,3,10,-11,0,7.1,6105
COc1ccc(C2C(C#N)=C(N)Oc3n[nH]c(C)c32)cc1Cn1cc([N+](=O)[O-])cn1 (stereo not drawn),nt,nt,-15,-33,-2,2.3,4792
CCCSC1=NN2CCCC(=O)N=C2S1,3,7,-2,-34,-4,2.8,3663
C=CCOc1ccc(/C(CC)=N/O)cc1OC,nt,nt,4,-9,nt,nt,4436
COCC(=O)NNC(=O)Cc1ccc(Cl)cc1,2,0,2,-17,-2,7.1,2187
COc1ccc2nc(N=Cc3c(C)[nH]n(-c4ccc(C)cc4C)c3=O)sc2c1,-4,-6,nt,nt,-1,-3.4,nt
CCOC(=O)N/N=C(\C)c1ccc(C)o1,nt,nt,6,-15,nt,nt,4305
CSCC[C@H](NC(=O)N1CCn2c1nc1ccccc12)C(=O)NCc1ccc2c(c1)OCO2,-2,11,5,-16,5,2.8,5353
CC(C)Cc1cc(C(=O)O)c2ccccc2n1,5,9,7,-4,4,2.6,18252*
CCCn1c(SCC(=O)N2c3ccccc3CC2C)n[nH]c1=O (stereo not drawn),3,4,nt,-16,-1,2.2,5704
Cc1cc(C)n(CCC(=O)NN=Cc2ccc(Br)c([N+](=O)[O-])c2)n1,10,1,nt,nt,1,1.8,nt
Cc1c(N(C)C(=O)COc2ccc3ccccc3c2)c(=O)n(-c2ccccc2)n1C,-7,5,16,-32,8,-2.0,4881
CN(C)/C(Cn1cncn1)=C1/N=C(c2c(F)cccc2F)OC1=O,4,11,-10,-26,4,0.6,2464
Cc1[nH]n(-c2ccccc2)c(=O)c1/C=N/NC(=O)c1ccccc1F,nt,nt,13,-10,nt,nt,2710
COc1cc(C(=O)OCC(=O)N2CCCC2=O)cc(OC)c1C,8,9,nt,nt,6,6.4,nt
CC(=O)Nc1ccc(S(=O)(=O)Nc2ccc(-n3cnnn3)cc2)cc1,12,6,nt,-26,1,4.8,3373
C=CCn1c(=O)c2c(nc3n2CC(C)CN3c2cccc(OC)c2)n(C)c1=O (stereo not drawn),5,7,6,-9,16,5.9,5298
CCOc1ccc(NC(=O)COC(=O)c2cc(S(=O)(=O)N3CCCC3)ccc2C)cc1,0,3,nt,-6,2,4.9,3807
Cc1ccc(S(=O)(=O)N2CCSC2C(=O)O)cc1 (stereo not drawn),17,4,3,-33,5,4.1,9796

# Next section; the last 2 above are carried over.
SMILES,Mtb hypoxia inh,Mtb hypoxia inh growth,BJeLR lethal,PrP 5UTR inh,ugtP null kill,RN4220 kill,Autofluor counter
CCOc1ccc(NC(=O)COC(=O)c2cc(S(=O)(=O)N3CCCC3)ccc2C)cc1,0,3,nt,-6,2,4.9,3807
Cc1ccc(S(=O)(=O)N2CCSC2C(=O)O)cc1 (stereo not drawn),17,4,3,-33,5,4.1,9796
CCC(C)Nc1nc(N)c([N+](=O)[O-])c(NC2CCCCC2)n1 (stereo not drawn),0,-1,2,1,42,-9.3,4062
Cc1oc(-c2ccc(Cl)cc2)nc1CN1CCC(C(=O)NCc2cccs2)CC1,9,11,-2,-11,-7,-1.1,3666
Cc1ccc(C(=O)Nc2ccc(Cl)cc2C)c(Cl)c1,-8,2,-8,-55,18,13,4203
O=C(COC(=O)c1cnccn1)Nc1c(Cl)cc(Cl)cc1Cl,3,-5,nt,-8,11,7.6,3043
Cc1nn(-c2ccc(N3CCOCC3)nn2)c(C)c1CCC(=O)Nc1ccc(F)cc1,10,3,8,0,-1,0.1,5128
Cc1ccc(C2(c3noc(CN(C)CC4CCCCO4)n3)CCCC2)cc1 (stereo not drawn),10,4,9,-7,11,5.5,4218
O=C(Cn1ccc(C(F)(F)F)n1)NNC(=O)c1ccco1,10,6,nt,-4,4,2.1,6058
O=C(CS(=O)(=O)Cc1ccccc1)NCc1ccc2c(c1)OCO2,2,8,1,-5,5,2.6,4163
O=C(Nc1ccccc1)O/N=C/c1ccc(F)cc1,nt,nt,-1,-52,nt,nt,3638
O=C(O)c1ccccc1C(=O)N1CCN(c2cccc(Cl)c2)CC1,nt,nt,-5,-6,6,-7.3,3671
Cc1ccc(N(CC(=O)N/N=C/c2ccco2)S(=O)(=O)c2ccccc2)cc1,nt,nt,5,-7,nt,nt,12509
CN1C(=O)N(c2ccc(Cl)cc2)C(C)(O)CC1(C)C (stereo not drawn),7,0,-1,-4,0,-0.3,3080
COc1ccc(-c2ccc(-c3noc(C4CCCCC4)n3)c(OC)n2)cc1,1,4,-11,-30,14,20,2674

# Screening results (PubChem)
